miR-21 reporter = raises the signal of a miR-21 reporter. Potency, µM (highest dose often 38.3 µM), for inactives: top-dose reporter change, positive = more light. 340,000 tested, under 10 active. HeLa miR-21 FLuc reporter, luciferase, 48 h; active = well fitted rising curve with a large enough effect; inconclusive = small, poorly fitted or top-dose-only effect; inactive = no such curve, though single readings can be large or run the other way;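 note: % of control where 0% means no effect; miR-21 action dims this reporter so a rising signal means less miR-21 action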
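Using DMEM plus 10% FBS, HeLa miR-21-FLuc cells are incubated with test compounds (final up to about 40uM) for 48 hours; firefly luciferase signal is then imaged following reagent-mediated lysis.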
Starred values were filed as active, the others as inactive; ? = inconclusive.

SMILES | miR-21 reporter
O=C(CN1C(=O)COc2ccc(S(=O)(=O)NC3CCCC3)cc21)Nc1ccc(F)c(Cl)c1 | -7%
CCCSc1nnc2n(-c3ccc(OC)cc3)c(=O)c3c4c(sc3n12)COC(C(C)C)C4 (stereo not drawn) | 0%
CCn1c(CN2CCCCC2)nc2cc(NC(=O)c3ccccc3[N+](=O)[O-])ccc21 | 19%
O=C(COCc1cc(-c2ccc(F)cc2)on1)Nc1cc(Cl)ccc1O | 8%
CCOc1ccc(-c2cc(C(=O)NCc3ccc(OC)cc3)c3c(-c4ccc(F)cc4)[nH]nc3n2)cc1 | -6%
CCOC(=O)c1c(C)[nH]c(C)c1S(=O)(=O)N(C)CC(=O)N1CCN(c2ccccc2)CC1 | -4%
Cc1cc(OCC(=O)N(Cc2sccc2C)C2CCS(=O)(=O)C2)ccc1Cl (stereo not drawn) | 4%
COC(=O)c1ccc(NS(=O)(=O)c2ccc3c(c2)n(C)c(=O)c(=O)n3C)cc1 | -2%
Cc1ccc(CCNC(=O)c2ccc(Nc3nc4ccccc4n4nnnc34)cc2)cc1 | -1%
Cc1ccc(-c2nc(CS(=O)(=O)CC(=O)Nc3cc(C)ccc3C)c(C)o2)cc1 | -5%
CCc1ccc(CNC(=O)C2COc3ccccc3C2)cc1 (stereo not drawn) | -21%
CC1CCN(S(=O)(=O)c2ccc3nc(NCc4ccc(N(C)C)cc4)ccc3c2)CC1 | 29%
Cc1ccc(C(=O)Oc2c(S(=O)(=O)c3ccccc3)c(C)nn2-c2ccccc2)cc1 | -5%
CC1CN(C(=O)N2CCC(C(=O)NCCCc3ccccc3)CC2)c2ccccc2O1 (stereo not drawn) | -2%
Cc1ccc(N2CCN(C(=O)C3CCN(S(=O)(=O)c4ccc5c(c4)oc(=O)n5C)CC3)CC2C)cc1 (stereo not drawn) | 0%
Cc1nc(-c2cccnc2)sc1CCNS(=O)(=O)c1ccc(F)cc1 | -3%
CC1CCN(c2nc(-c3ccc(C(C)(C)C)cc3)nc3ccccc23)CC1 | -52%
CCCCOc1cccc(C(=O)N(Cc2cccs2)c2ccc(OC)cc2)c1 | ?
COc1ccc(CNC(=O)CCS(=O)(=O)c2cc3c4c(c2)CCN4C(=O)CC3)cc1 | 0%
COc1cc(/C=C(\C#N)c2nc3ccccc3[nH]2)ccc1OCc1cccc(C(F)(F)F)c1 | -17%
COc1ccc(Nc2c3c(nc4ccc(NC(=O)c5ccc(F)cc5)cc24)CCCC3)cc1OC | -7%
COc1ccc(N2C(=O)CSC23C(=O)N(CC(=O)NCc2ccccc2)c2ccccc23)cc1 (stereo not drawn) | -1%
CC(C)(C)C1CCc2c(sc(NC(=O)C3c4ccccc4Oc4ccccc43)c2C(N)=O)C1 (stereo not drawn) | -2%
CCOc1ccc(CNC(=O)c2cc3cc(S(=O)(=O)N4CCCCC4)ccc3n2C)cc1 | 22%
COc1ccc(S(=O)(=O)NCc2cccn2Cc2cccc(C)c2)cc1Cl | ?
CCN(CC)C(=O)Cn1c(=O)n(Cc2ccc(C(=O)NCCCOC)cc2)c(=O)c2ccccc21 | 0%
C#CCN1C(=O)C(O)(CC(=O)c2ccc(OC)c(OC)c2)c2cc(Br)ccc21 (stereo not drawn) | 21%
CCOc1ccc(CCNC(=O)Cn2ncn3c(cc4ccccc43)c2=O)cc1OCC | -1%
O=C(COc1ccccc1Cl)Nc1cc(-c2ccccc2F)nn1-c1ccccc1 | -4%
CC1CCN(c2ncnc3c2nnn3C)CC1 | -11%
CC1=C(C(=O)Nc2ccccc2)C(c2ccccc2)n2nc(-c3ccco3)nc2N1 (stereo not drawn) | -17%
COc1ccc(CNC(=O)C2CCN(C(=O)N3CC(C)Oc4ccc(C)cc43)CC2)cc1 (stereo not drawn) | 8%
CCOC(=O)c1ccc2ncc3c(-c4ccccc4)nn(-c4ccc(F)c(Cl)c4)c3c2c1 | -13%
CCN1CCOC(=O)C1CC(=O)Nc1ccccc1C(F)(F)F (stereo not drawn) | -5%
CC1=C(C(=O)Nc2cc(C)cc(C)c2)C2(CCCCC2)OC1=O | 6%
CCN(C(=O)CSc1nc2ncccc2[nH]1)c1ccc(C(C)C)cc1 | 3%
CCC(C)NC(=O)c1c(-c2ccccc2)c(-c2ccccc2)nn(C)c1=O (stereo not drawn) | 12%
Cc1cccc(NC(=O)CN2C(=O)C(c3ccc(F)cc3)=NC23CCCCCC3)c1C | 24%
CCCN1CCN(CCCNC(=O)c2cnn(-c3ccc(C)cc3)c2-n2cccc2)CC1 | 1%
Cc1ccc(NC(=O)C2CCN(c3nc4ccccc4[nH]3)CC2)cc1Cl | 0%
CCOc1ccc(NC(=O)NCCN2CCN(c3cc(Cl)ccc3C)CC2)cc1 | 21%
Clc1ccc(CCNC(c2cccc(Cl)c2)c2nnc(-c3ccccc3)o2)cc1 (stereo not drawn) | 4%
CCCN(CCC)CC(O)Cn1cc(/C=C/C(=O)c2ccc(OCC)cc2)c2ccccc21 (stereo not drawn) | -16%
CCN(C(=O)COc1cc(=O)n(C)c2ccccc12)c1cccc(C(F)(F)F)c1 | 6%
Cc1cc(NC(=O)C2CCCN(S(=O)(=O)c3cn(C)cn3)C2)ccc1Br (stereo not drawn) | -4%
COCCNc1ccc(-c2nc(-c3ccccn3)no2)cc1[N+](=O)[O-] | -8%
CCN(CC)CCCNC(=O)c1ccc2c(c1)N(Cc1c(F)cccc1Cl)C(=O)c1ccccc1S2 | 14%
Cc1cc(C)c(Cn2c3ccccc3c3cnn(CC(=O)N4CCCCCC4)c(=O)c32)c(C)c1 | 3%
O=C(CSc1nc2c([nH]c3ccccc32)c(=O)n1-c1ccccc1)c1ccc(Cl)cc1 | 3%
O=C(NCCc1ccc(Cl)cc1)c1cc(-c2ccccc2)n[nH]1 | -4%
COc1cc(C2CC(=O)Nc3cc4c(cc32)OCCO4)cc(Br)c1OC (stereo not drawn) | ?
CCOC(=O)N1CCN(C(=O)CN(c2cccc(Cl)c2C)S(=O)(=O)c2ccc(C)cc2)CC1 | -10%
COc1cccc(Cn2c(=O)cc(C)c3c(C)nn(-c4ccc(C)cc4)c32)c1 | -15%
COc1ccccc1C(=O)NCc1ccc2c(c1)CCN2C(=O)c1ccncc1 | 7%
CCN(CC)c1ccc(NC(=O)CN(C)S(=O)(=O)c2cccc3nsnc23)c(C)c1 | -2%
CCCN(C(=O)Cn1nc(Cc2ccncc2)c2ccccc2c1=O)c1ccccc1C | 8%
Cc1ccc(OCC(=O)Nc2ccc(C(=O)OCc3cc(=O)n4nc(C5CC5)sc4n3)cc2)cc1 | -7%
COCCCNC(=O)CCC(=O)N1Cc2ccccc2Oc2ncccc21 | 0%
CC(=O)c1cccc(NC(=O)c2oc(=O)c3ccccc3c2-c2ccccc2)c1 | 5%
Cc1ccc(Cl)c(NC(=O)Nc2csc3c2CCCC3)c1 | -2%

New compounds follow:
SMILES | miR-21 reporter
COc1ccc(OC)c(CNc2sc3c(c2C(=O)Nc2cc(OC)ccc2OC)CCCC3)c1 | 13%
CCC(C)c1ccc(OCC(=O)Nc2ccc(-c3nc4ncccc4o3)cc2)cc1 (stereo not drawn) | -38%
COc1ccccc1N1CCN(C(=O)c2cnn(-c3ccc(C)c(C)c3)c2C2CCN(C(=O)OC(C)(C)C)CC2)CC1 | ?
COc1ccc(Cl)cc1C(=O)Nc1ccc2oc(-c3ccc(C(C)(C)C)cc3)nc2c1 | -65%
Cc1nc(-c2ccccc2)sc1-c1ccc(SCC(=O)NCc2ccccc2Cl)nn1 | -16%
COc1ccc(CNc2nc3c(-c4cccc(F)c4)nnn3c3ccccc23)cc1 | -44%
CC(C)CN(CC(C)C)S(=O)(=O)c1ccc(C(=O)Nc2sc3c(c2C(N)=O)CC(C)(C)NC3(C)C)cc1 | -15%
CCC(C)NC(=O)Cn1ncc2c([nH]c3ccc(C)cc32)c1=O (stereo not drawn) | -2%
CC(C)(C)OC(=O)N1CCC(c2c(C(=O)N3CCN(c4ncccn4)CC3)cnn2-c2cccc(F)c2)CC1 | 0%
Cc1ccccc1CNC(=O)CCS(=O)(=O)c1cc2c3c(c1)CCN3C(=O)CC2 | 1%
O=C(COc1ccccc1F)Nc1ccc2oc(-c3cccc(Cl)c3)nc2c1 | -9%
COc1ccc(-n2c(SCC(=O)NCc3ccccc3)nc3c([nH]c4ccccc43)c2=O)cc1 | -6%
Cc1ccc(SCC(=O)Nc2cccc(-c3nc4cc(Cl)ccc4o3)c2C)cc1 | -39%
CCN(CCCNC(=O)c1cc2c(=O)[nH]c3ccc(C)cc3c2s1)c1ccc(C)cc1 | 1%
Cc1ccc(-c2cn3c(n2)sc2cc(C(=O)NC4CCCCC4)ccc23)cc1 | -6%
Cc1ccc2oc(=O)c3cc(C(=O)N4CCN(c5ccccc5)CC4)sc3c2c1 | 0%
CN(c1ncnc2c1c(-c1ccccc1)cn2-c1cccc(Cl)c1)C1CCCCC1 | -3%
CCOc1ccccc1NC(=O)Nc1nnc(N2CCCCCC2)s1 | -50%
Fc1ccc(-n2nc(-c3ccccc3)c3cnc4ccccc4c32)cc1Cl | -4%
CCCCOC(=O)c1ccc(NC(=O)c2csnn2)cc1 | -47%
COc1cccc(NC(=O)CSc2nnc3scc(-c4ccc(Cl)cc4)n23)c1 | 4%
CCCOC(=O)CSc1nnc(-c2ccccc2)o1 | 2%
CCN1CCN(C(=O)c2cnn(-c3cccc(Cl)c3)c2C2CCN(C(=O)OC(C)(C)C)CC2)CC1 | -1%
O=C(CN1CCCN(Cc2ccc(F)cc2)S1(=O)=O)NCc1ccccc1Cl | 1%
CCOC(=O)c1c(C)[nH]c(CCC(=O)NCc2ccccc2Cl)c1C | -1%
O=C(c1ccccc1Cl)n1nc(-c2ccco2)nc1NCc1cccs1 | -28%
CN(C(=O)c1cc2c(=O)oc3ccccc3c2s1)c1ccc(F)cc1 | -1%
CCOC(=O)C1=C(C)N=C2SCCC(=O)N2C1c1ccc(OCc2ccccc2)cc1 (stereo not drawn) | -3%
COc1cc(NC(=O)COCc2cc(-c3ccc4c(c3)OCO4)on2)c(OC)cc1Cl | -1%
Cc1ccccc1NC(=O)Cn1c(=O)n(CCCCCC(=O)NCc2ccccc2Cl)c(=O)c2sccc21 | 0%
COc1cccc(CNC(=O)CCn2c(=O)c3cccn3c3cccnc32)c1OC | -6%
Cc1cn2c(=O)c(S(=O)(=O)NCc3ccc(F)cc3)c(C)nc2s1 | -1%
COc1cc(NC(=O)C(CCS(C)(=O)=O)N2Cc3ccccc3C2=O)cc(OC)c1OC (stereo not drawn) | 1%
CCOC(=O)c1c(C)[nH]c(CCC(=O)Nc2ccc(Cl)cc2C)c1C | 3%
COc1cc(OC)c(NC(=O)c2ccc(-n3cnc4cccnc43)cc2)cc1Cl | -6%
CCc1ccc(NC(=O)Cn2c(=O)n(Cc3ccco3)c(=O)c3oc4ccccc4c32)cc1 | -3%
COc1ccccc1N1CCN(c2ncnc3c2c(-c2ccccc2)cn3-c2cccc(C)c2)CC1 | -5%
Cc1ccc(CNC(=O)Cn2nc(C)n3cccc3c2=O)cc1 | -35%
Fc1ccc(-n2ncc3c(N4CCN(c5ccccc5F)CC4)ncnc32)cc1 | 2%
COc1ccc(OC)c(NC(=O)c2c(NCc3ccc(N(C)C)cc3)sc3c2CCCC3)c1 | 14%
COc1ccc(-c2csc3nc(-c4ccccc4C)oc(=O)c23)cc1OC | -2%
Cc1ccc(CNC(=O)Cn2c(=O)cc(C)c3c(C)nn(-c4cccc(F)c4)c32)cc1 | 2%
O=C(CCc1ccccc1)NCc1nc2cccnc2n1Cc1ccc(F)cc1 | 3%
Cc1ccc[n+](CC(=O)c2ccccc2)c1 | 2%
CCC(=O)N1CCc2cc(S(=O)(=O)NC(C(=O)NCc3ccc(OC)cc3)C(C)C)ccc21 (stereo not drawn) | 6%
Cc1nn2c(=O)cc(COC(=O)c3ccc(NC(=O)CCc4ccccc4)cc3)nc2s1 | -5%
CCSc1ncc(Cl)c(C(=O)Nc2sc(C(C)=O)c(C)c2C(=O)OC)n1 | 3%
O=C(Nc1cccc(C(=O)OCc2cc(=O)n3nc(C4CC4)sc3n2)c1)c1ccc(F)cc1 | 9%
CCOc1ccc(NC(=O)c2nc3nc(C)cc(C(F)F)n3n2)cc1 | -12%
O=C(CSC1=Nc2ccccc2C2=NC(CC(=O)NC3CCCCC3)C(=O)N12)Nc1ccc(F)cc1 (stereo not drawn) | 13%
CCOC(=O)c1c(C)[nH]c(C)c1S(=O)(=O)N1CCC(C(=O)Nc2ccc(C)c(N(C)C)c2)CC1 | -4%

Ordered by count of non-hydrogen atoms (smallest number first): part of the list above
SMILES | miR-21 reporter
COc1ccc(-c2csc3nc(-c4ccccc4C)oc(=O)c23)cc1OC | -2%
O=C(CCc1ccccc1)NCc1nc2cccnc2n1Cc1ccc(F)cc1 | 3%
Cc1ccc(CNC(=O)Cn2c(=O)cc(C)c3c(C)nn(-c4cccc(F)c4)c32)cc1 | 2%
CCOC(=O)c1c(C)[nH]c(C)c1S(=O)(=O)N1CCC(C(=O)Nc2ccc(C)c(N(C)C)c2)CC1 | -4%
O=C(CSC1=Nc2ccccc2C2=NC(CC(=O)NC3CCCCC3)C(=O)N12)Nc1ccc(F)cc1 (stereo not drawn) | 13%

Arranged by the number under miR-21 reporter (high to low): 5 from the list above.
SMILES | miR-21 reporter
CCN(CC)CCCNC(=O)c1ccc2c(c1)N(Cc1c(F)cccc1Cl)C(=O)c1ccccc1S2 | 14%
COCCCNC(=O)CCC(=O)N1Cc2ccccc2Oc2ncccc21 | 0%
COC(=O)c1ccc(NS(=O)(=O)c2ccc3c(c2)n(C)c(=O)c(=O)n3C)cc1 | -2%
O=C(COc1ccccc1Cl)Nc1cc(-c2ccccc2F)nn1-c1ccccc1 | -4%
Cc1ccc(-c2nc(CS(=O)(=O)CC(=O)Nc3cc(C)ccc3C)c(C)o2)cc1 | -5%

Structures listed so far that have a nitro group on carbon:
SMILES | miR-21 reporter
CCn1c(CN2CCCCC2)nc2cc(NC(=O)c3ccccc3[N+](=O)[O-])ccc21 | 19%
COCCNc1ccc(-c2nc(-c3ccccn3)no2)cc1[N+](=O)[O-] | -8%

Source: PubChem (National Center for Advancing Translational Sciences (NCATS))

Only part of the results is shown; count on the stated rates, not on these rows.
